# From PubChem
# YB-1 expression – YB-1 expression inhibition. U2OS, qRT-PCR YB-1 vs CDIP delta delta Cp, 16 h; hits give high values; zero = DMSO, each unit about twofold. AID 434959. delta delta Cp (YB-1 minus CDIP) (no concentration beside the values). 30,000 compounds, 0.37% hits;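 active means delta delta Cp rounded down to an integer at or above 3, about 3 SD of DMSO wells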;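 further: higher means less YB-1 transcript or more CDIP transcript relative to DMSO; stock transfer was 100 nL into about 100 µL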
# PD-1 reversal – reversal of PD-1 mediated T-cell inhibition; primary human CD4 T cells, PD-L1 beads, CellTiter-Glo 96 h; activation, % (test concentration not listed); AID 2316; 29,000 tested, under 10 active;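 active means replicate mean of 50% or more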;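 further: 0% = median vehicle wells and 100% = positive control; 100 nL library stock added to about 50 µL; numbers are from one replicate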
# Shh pathway inh – Sonic Hedgehog pathway inhibition. Shh-LIGHT2 Gli-luciferase reporter, 30 h. inhibition, % (test concentration not listed). 22,000 compounds, 2.1% hits;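 active means replicate mean of 65% or more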;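 further: pathway switched on by Shh-conditioned medium diluted 1 in 25 in low serum; 100 nL library stock added to about 40 µL; 0% = median of neutral wells and 100% = positive control level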
# MITF inh – inhibitors of MITF | TRPM1 promoter luciferase, luminescence, 24 h | inhibition, % (concentration not given with the values) | 37,000 compounds, 0.28% hits | AID 2240;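 active means most replicates at 85% or more, or half of them and the mean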;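 further: human melanocyte line stably carrying TRPM1 promoter luciferase reporter; 0% = vehicle wells and 100% = a positive control; the first replicate is given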
# Numbers without * were called inactive; / = no result given. These rows are one share of the data; the hit share may differ from the screen's.
no.	Compound	YB-1 expression	PD-1 reversal	Shh pathway inh	MITF inh
1	C[C@H]1CN([C@@H](C)CO)C(=O)c2cccc(NC(=O)C3CCCCC3)c2O[C@H]1CN(C)Cc1ccc(C(=O)O)cc1	0.051	2.3	-25	-10
2	C[C@@H]1CN([C@@H](C)CO)C(=O)c2cc(NS(=O)(=O)c3cccs3)ccc2O[C@H]1CN(C)C(=O)NC1CCCCC1	0.17	-0.4	/	2
3	CN(CC(=O)Nc1ccncc1)S(=O)(=O)c1ccc(Cl)cc1	/	2.4	/	13
4	C[C@@H]1CCCCO[C@@H](CN(C)S(=O)(=O)c2ccccc2)[C@@H](C)CN([C@H](C)CO)C(=O)c2cc(NC(=O)NC3CCCCC3)ccc2O1	0.13	-4.3	0	11
5	COC(=O)c1cc(C)nc(Sc2ccccc2NC(C)=O)n1	-0.026	1.8	-21	10
6	Cc1noc(C)c1NC(=O)Nc1ccc2c(c1)C(=O)N([C@H](C)CO)C[C@H](C)[C@H](CN(C)C(=O)Nc1c(C)noc1C)OCCCC[C@@H](C)O2	-0.097	-0.3	/	2
7	C[C@H]1CN([C@@H](C)CO)C(=O)Cc2cc(NC(=O)Nc3ccc(F)cc3)ccc2O[C@@H]1CN(C)Cc1ccccc1	-0.005	/	-8	4
8	Cc1nc2c([nH]1)C(c1ccc(C(C)C)cc1)C(C#N)=C(N)O2 (configuration not stated)	-0.0049	-1.1	-9	14
9	O=C(CCc1nc(-c2ccccc2F)no1)Nc1cccnc1	/	1.1	/	-5
10	CC(C(=O)Nc1cccnc1)N(c1ccc(Cl)cc1)S(C)(=O)=O (configuration not stated)	/	0.7	/	-7

# Given with values under each structure: entries from further up
# Results follow in this order: YB-1 expression | PD-1 reversal | Shh pathway inh | MITF inh
[6] Cc1noc(C)c1NC(=O)Nc1ccc2c(c1)C(=O)N([C@H](C)CO)C[C@H](C)[C@H](CN(C)C(=O)Nc1c(C)noc1C)OCCCC[C@@H](C)O2
  -0.097 | -0.3 | / | 2
[3] CN(CC(=O)Nc1ccncc1)S(=O)(=O)c1ccc(Cl)cc1
  / | 2.4 | / | 13
[5] COC(=O)c1cc(C)nc(Sc2ccccc2NC(C)=O)n1
  -0.026 | 1.8 | -21 | 10
[2] C[C@@H]1CN([C@@H](C)CO)C(=O)c2cc(NS(=O)(=O)c3cccs3)ccc2O[C@H]1CN(C)C(=O)NC1CCCCC1
  0.17 | -0.4 | / | 2

# Further results
no.	Compound	YB-1 expression	PD-1 reversal	Shh pathway inh	MITF inh
11	COc1ccc(S(=O)(=O)Nc2ccc3c(c2)C(=O)N([C@H](C)CO)C[C@@H](C)[C@@H](CN(C)S(=O)(=O)c2c(C)noc2C)O3)cc1	0.039	0.2	-22	-9
12	CCCCc1ccc(NC(=O)N=S2CCN(c3ncc(C(F)(F)F)cc3Cl)CC2)cc1	0.46	0.4	1	-15
13	CN(c1cccc(NC(=O)c2ccc(N(C)S(=O)(=O)c3ccccc3)cc2)c1)S(C)(=O)=O	/	0.7	/	61
14	C[C@@H]1CN([C@@H](C)CO)C(=O)Cc2cc(NC(=O)Nc3ccc(C(F)(F)F)cc3)ccc2O[C@@H]1CN(C)Cc1ccccc1	-0.1	/	3	9
15	C[C@H]1CN([C@@H](C)CO)C(=O)Cc2cc(NC(=O)Cc3ccccc3)ccc2O[C@H]1CN(C)S(C)(=O)=O	0.055	0.2	/	-5
16	C[C@H]1CN([C@@H](C)CO)C(=O)c2cc(NC(=O)CCCCCC(=O)Nc3ccccc3N)ccc2O[C@H]1CN(C)S(=O)(=O)c1ccccc1	-0.36	1.0	/	-2
17	C[C@H]1CN([C@@H](C)CO)C(=O)c2cccc(NS(=O)(=O)c3cccs3)c2O[C@H]1CN(C)S(=O)(=O)c1ccc(Cl)cc1	0.5	-0.6	1	6
18	C[C@H]1CN([C@@H](C)CO)C(=O)c2cc(NS(=O)(=O)c3ccc(F)cc3)ccc2O[C@@H]1CN(C)Cc1ccccc1	-0.34	-0.6	/	-1
19	COc1ccc(OC)c(NC(=O)COc2ccc3c4c(c(=O)oc3c2C)CCC4)c1	/	2.3	/	-32
20	C[C@H](CO)N1C[C@H](C)[C@@H](CN(C)C(=O)Nc2cccc3ccccc23)Oc2c(NC(=O)c3ccncc3)cccc2C1=O	-0.084	/	-5	-3
21	Cc1ccc(S(=O)(=O)N(C)C[C@H]2Oc3c(NC(=O)C4CC4)cccc3C(=O)N([C@H](C)CO)C[C@H]2C)cc1	0.17	-0.1	10	-8
22	CNC[C@@H]1Oc2c(NS(=O)(=O)c3ccc(C)cc3)cccc2C(=O)N([C@H](C)CO)C[C@@H]1C	0.0022	2.2	-54	-4
23	CC(C)NC(=O)Nc1ccc2c(c1)C(=O)N([C@H](C)CO)C[C@H](C)[C@H](CN(C)Cc1ccncc1)OCCCC[C@@H](C)O2	-0.099	0.8	-26	-20
24	CC(C)NC(=O)Nc1cccc2c1O[C@H](CN(C)C(=O)Nc1cccc3ccccc13)[C@@H](C)CN([C@@H](C)CO)C2=O	0.46	0.4	5	3
25	O=C(O)COc1ccc(Cl)cc1C1C2=C(CCCC2=O)NC2=C1C(=O)CCC2	/	1.3	/	-2
26	COC(=O)/C=c1\sc2ncnn2c1=O	0.12	-0.9	/	-3
27	C[C@H](CO)N1C[C@H](C)[C@H](CN(C)S(=O)(=O)c2ccc(Cl)cc2)Oc2ccc(NC(=O)Cc3ccccc3)cc2CC1=O	0.039	-1.0	12	2
28	N#Cc1ccc(Oc2ccc(C(=O)OCc3cccc(C(=O)c4ccccc4)c3)cc2)cc1C#N	/	0.7	/	0
29	COc1ccccc1NC(=O)CN(c1ccccc1)S(C)(=O)=O	/	1.3	/	-12
30	CC(C)(C)NCC(O)c1ccc(O)c(CO)c1 (configuration not stated)	-0.63	/	-6	-4
31	Cc1noc(C)c1S(=O)(=O)Nc1ccc2c(c1)CC(=O)N([C@H](C)CO)C[C@H](C)[C@H](CN(C)S(=O)(=O)c1ccccc1)O2	0.4	/	-2	-6
32	CC/C=C\[C@H](O)[C@H](O)C1=C(C)C(=O)[C@]2(O1)C(=O)N[C@@](OC)(C(=O)c1ccccc1)C2O (some centres not stated)	0.31	-1.3	-30	4
33	COC(=O)CC(O)(CCCC(C)(C)O)C(=O)O[C@@H]1C(OC)=C[C@]23CCCN2CCc2cc4c(cc2[C@@H]13)OCO4 (some centres not stated)	-0.092	-15	104*	93*
34	C[C@H]1CN([C@@H](C)CO)C(=O)Cc2cc(NS(=O)(=O)c3ccccc3)ccc2O[C@@H]1CN(C)Cc1ccccc1	0.12	0.6	23	-2
35	C[C@@H]1CCCCO[C@H](CN(C)C(=O)C2CCCCC2)[C@@H](C)CN([C@H](C)CO)C(=O)c2cc(NS(=O)(=O)c3ccc(F)cc3)ccc2O1	0.025	/	-5	7
36	O=C(N[C@@H](CO)[C@H](O)c1ccc([N+](=O)[O-])cc1)C(Cl)Cl	-0.53	/	-4	15
37	C[C@H](CO)N1C[C@H](C)[C@H](CN(C)C(=O)Nc2ccc(F)cc2)Oc2c(NS(C)(=O)=O)cccc2C1=O	0.42	0.9	-61	3
38	COc1ccccc1NC(=O)CSc1nnc(-c2ccccc2)n1-c1cccc(C)c1	/	-1.1	/	42
39	Cc1ccc(S(=O)(=O)Nc2ccc3c(c2)C(=O)N([C@@H](C)CO)C[C@H](C)[C@@H](CN(C)S(=O)(=O)c2ccc(Cl)cc2)O3)cc1	0.083	-4.7	/	3
40	C[C@H]1CN([C@@H](C)CO)C(=O)c2cc(NC(=O)C3CC3)ccc2O[C@@H]1CN(C)Cc1ccc(C(=O)Nc2ccccc2N)cc1	-0.0042	0.4	/	-4
41	C[C@@H]1CCCCO[C@H](CN(C)C(=O)Nc2ccc3c(c2)OCO3)[C@@H](C)CN([C@H](C)CO)C(=O)c2cc(NC(=O)Nc3ccc(F)cc3)ccc2O1	0.17	/	1	-8
42	C[C@H]1CN([C@@H](C)CO)C(=O)Cc2cc(NC(=O)CCCCCC(=O)Nc3ccccc3N)ccc2O[C@@H]1CN(C)C(=O)NC1CCCCC1	-0.084	-0.5	/	-28
43	CNC[C@@H]1Oc2c(NS(=O)(=O)c3cn(C)cn3)cccc2C(=O)N([C@H](C)CO)C[C@H]1C	-0.44	/	-60	-1
44	Cc1ccc(N(CC(O)Cn2c3ccccc3c3ccccc32)S(C)(=O)=O)c(C)c1 (configuration not stated)	/	0.1	/	4
45	COc1ccc(CN(C)C[C@@H]2Oc3ccc(NS(=O)(=O)c4ccc(Cl)cc4)cc3C(=O)N([C@H](C)CO)C[C@@H]2C)cc1	-0.36	-0.1	5	-11
46	C[C@@H]1CCCCO[C@@H](CN(C)Cc2ccc(C(F)(F)F)cc2)[C@@H](C)CN([C@H](C)CO)C(=O)c2cc(NC(=O)CCCCCC(=O)Nc3ccccc3N)ccc2O1	-0.32	0.9	/	53
47	CCC(C)[C@H]1C(=O)O[C@H](C(C)C)C(=O)N(C)[C@@H](C(C)C)C(=O)O[C@H](C(C)C)C(=O)N(C)[C@@H](C(C)C)C(=O)O[C@H](CC(C)C)C(=O)N1C (some centres not stated)	0.71	-14	106*	78
48	CCOC(=O)NC1C=CS(=O)(=O)C1 (configuration not stated)	0.25	0.0	-8	12
49	CC(C)NC(=O)N(C)C[C@@H]1Oc2ccc(NC(=O)C3CCCCC3)cc2CC(=O)N([C@@H](C)CO)C[C@@H]1C	0.19	0.3	-8	16
50	Cc1nc2ccccc2n1CC(O)COc1ccc(C(C)C)cc1 (configuration not stated)	/	-1.5	/	33
51	Cc1cccc(C)c1NC(=O)CN(c1ccc(Br)cc1)S(C)(=O)=O	/	0.3	/	-14
52	C[C@H]1CN([C@@H](C)CO)C(=O)Cc2cc(NC(=O)Nc3ccc(F)cc3)ccc2O[C@H]1CN(C)S(=O)(=O)c1ccccc1	-0.12	-0.6	-23	18
53	CNC[C@H]1Oc2c(NC(=O)C3CCCCC3)cccc2C(=O)N([C@H](C)CO)C[C@H]1C	-0.11	/	-6	-1
54	C[C@H](CO)N1C[C@H](C)[C@H](CN(C)Cc2ccncc2)Oc2ccc(NS(=O)(=O)c3ccc(Cl)cc3)cc2CC1=O	0.41	2.9	-36	-4
55	C[C@@H]1CN([C@H](C)CO)C(=O)c2cccc(NC(=O)Nc3ccc4c(c3)OCO4)c2O[C@H]1CN(C)C(=O)Nc1cccc2ccccc12	0.015	0.7	21	8
56	C[C@H](CO)N1C[C@H](C)[C@H](CN(C)C(=O)Nc2ccccc2)Oc2ccc(NS(=O)(=O)c3cccs3)cc2CC1=O	0.44	/	-15	3
57	COc1ccc(NC(=O)N(C)C[C@@H]2Oc3ccc(NC(=O)CCC(F)(F)F)cc3C(=O)N([C@H](C)CO)C[C@@H]2C)cc1	0.11	/	/	2
58	Cc1cc(C(F)(F)F)nc(SCC(=O)Nc2cccc(Cl)c2Cl)n1	/	-1.7	/	-5
59	C[C@H](CO)N1C[C@H](C)[C@@H](CN(C)CC2CC2)Oc2ccc(NS(=O)(=O)c3ccc(Cl)cc3)cc2C1=O	-0.21	/	/	-10
60	Cc1ccc(S(=O)(=O)Nc2ccc3c(c2)CC(=O)N([C@@H](C)CO)C[C@@H](C)[C@@H](CN(C)Cc2ccc(C(F)(F)F)cc2)O3)cc1	0.21	-1.3	20	17

# Following part:
no.	Compound	YB-1 expression	PD-1 reversal	Shh pathway inh	MITF inh
61	Cc1ccc(NC(=O)COc2ccc(C(=O)Nc3cccc(C)c3C)cc2)cc1	/	-0.7	/	17
62	COc1ccc(S(=O)(=O)Nc2ccc3c(c2)C(=O)N([C@H](C)CO)C[C@H](C)[C@@H](CN(C)C(=O)NC(C)C)O3)cc1	-0.23	0.6	-17	3
63	CC(C)(C)OC(=O)N1C(N)=C(C#N)C2(CCOCC2)c2[nH]c(C(F)(F)F)nc21	-0.29	1.2	11	8
64	Cc1noc(C)c1NC(=O)Nc1ccc2c(c1)C(=O)N([C@H](C)CO)C[C@H](C)[C@H](CN(C)C(=O)Nc1ccc(F)cc1)OCCCC[C@@H](C)O2	-0.44	-0.5	-2	-3
65	CC(=O)Oc1ccc(-c2coc3cc(OC(C)=O)cc(OC(C)=O)c3c2=O)cc1	0.38	0.2	-60	-28
66	C[C@H]1CN([C@@H](C)CO)C(=O)c2cccc(NC(=O)c3ccncc3)c2O[C@@H]1CN(C)Cc1ccc(Cl)c(Cl)c1	-0.8	/	31	-10
67	COc1ccc(S(=O)(=O)N(C)C[C@@H]2Oc3ccc(NC(=O)Nc4ccc(F)cc4)cc3C(=O)N([C@H](C)CO)C[C@@H]2C)cc1	0.019	-2.0	-8	20
68	O=[N+]([O-])c1cc(C(F)(F)F)ccc1NCCNS(=O)(=O)c1ccc2ccccc2c1	/	-1.9	/	0
69	COc1ccc(NC(=O)Nc2ccc3c(c2)C(=O)N([C@H](C)CO)C[C@@H](C)[C@H](CN(C)S(C)(=O)=O)O3)cc1	-0.094	0.5	9	6
70	COc1ccc(Cl)cc1S(=O)(=O)Nc1ccc(Cl)cn1	/	0.2	/	2
71	CSc1nc(C)cc(SCC(=O)Nc2ccccc2)n1	/	0.1	/	2
72	C[C@H]1CN([C@@H](C)CO)C(=O)c2cccc(NC(=O)C3CCCCC3)c2O[C@@H]1CN(C)C(=O)Nc1ccc(F)cc1	-0.3	0.5	9	5
73	COc1ccc(S(=O)(=O)Nc2cccc3c2O[C@@H](CN(C)Cc2ccc(-c4ccccc4)cc2)[C@H](C)CN([C@H](C)CO)C3=O)cc1	0.066	0.8	-16	24
